Screening data: PubChem BioAssay, National Center for Advancing Translational Sciences (NCATS)
2A StopGo – FMDV 2A StopGo reporter, luciferase signal; Potency, µM (highest dose often 57.9 µM), for the others: top-dose signal change, negative = less light; human cells with a luciferase reporter of 2A StopGo recoding; control for the full effect not named in the record; 410,000 tested, 1.2% active; active = well fitted falling curve with a large enough effect; inconclusive = small, poorly fitted or top-dose-only effect; inactive = no such curve, though single readings can be large or run the other way; tested in HEK293T cells; further: on the % scale 0 is the no-effect control and ±100 the full control effect; nearly all actives have a fitted effect of over 45% in size; luciferase light after 4 h
NS1 function inh – blocks influenza NS1 protein function; S. cerevisiae slowed by influenza A NS1, growth recovery by OD600; Potency, µM (top dose mostly 46.1 µM), without a hit: at the top dose activity, positive = more growth; 270,000 tested, 0.4% active; AID 2326; active means well fitted rising curve with a large enough effect; inconclusive means small, poorly fitted or top-dose-only effect; inactive means no such curve, though single readings can be large or run the other way; further: nearly all actives have a fitted effect of over 50% in size
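Recovery from NS1-induced slow growth read by OD600 in budding yeast switched to galactose assay medium (pH 6.0, -URA) at 1:100 dilution. Compound 23 nl per well; the matching strain lacking NS1 serves as control.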
SARS PLP yeast – SARS-CoV PLP inhibition in yeast; S. cerevisiae expressing SARS-CoV PLpro, growth rescue; control for the full effect not named in the record; Potency, µM (top dose mostly 32.9 µM), for the others: top-dose activity, positive = growth rescue; 330,000 tested, 0.19% active; AID 485353; active means well fitted rising curve with a large enough effect; inconclusive means small, poorly fitted or top-dose-only effect; inactive means no such curve, though single readings can be large or run the other way; further: 0% is about no effect; nearly all actives have a fitted effect of over 55% in size; growth read by luminescence after 48 h
Cruzain noTriton – inhibitors of Trypanosoma cruzi cruzain without detergent; P25779; purified cruzain, Z-FR-AMC fluorescence, no detergent; Potency, µM, for inactives: max response, negative = inhibition, usual class: inhibitors; AID 1476; 200,000 tested, 2.3% active;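 further: plate controls were enzyme without inhibitor for no effect and buffer without enzyme for full effect; nearly all actives have a fitted effect of over 40% in size; top concentration of the series not given in the record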
Target sequence (P25779 123-467 limits assumed): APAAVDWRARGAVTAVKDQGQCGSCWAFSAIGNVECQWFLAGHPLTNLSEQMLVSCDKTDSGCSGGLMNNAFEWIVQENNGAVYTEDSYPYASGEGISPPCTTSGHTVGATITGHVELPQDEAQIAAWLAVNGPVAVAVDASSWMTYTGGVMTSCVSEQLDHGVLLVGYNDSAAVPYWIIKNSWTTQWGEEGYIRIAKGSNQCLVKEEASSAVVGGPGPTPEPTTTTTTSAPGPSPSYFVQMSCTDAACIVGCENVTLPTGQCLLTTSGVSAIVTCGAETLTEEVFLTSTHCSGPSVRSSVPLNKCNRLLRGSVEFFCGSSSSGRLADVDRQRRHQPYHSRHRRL
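Detergent-free condition (0.00005% Triton X-100) in acetate buffer pH 5.5 with DTT. 1.5 nM enzyme and compound were pre-mixed 15 min, then 2 uM Z-FR-AMC substrate added; reaction progress from fluorescence change between first and third reads (60 s).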
MARV entry inh – blocks Marburg virus binding to or entry into cells. Potency, µM (top dose mostly 37.8 µM), for the others: at the top dose activity change, negative = inhibition, actives largely listed as inhibitors. Marburg virus pseudotyped entry inhibition, cell reporter; control for the full effect not named in the record; about a third of the inactives were read at about 46 µM. 300,000 tested, 1.8% active. AID 540276; active = well fitted inhibition curve with a large enough effect; inconclusive = small, poorly fitted or top-dose-only effect, or effect the other way; inactive = flat fitted curve, though single readings scatter; tested in HEK293 cells; about a fifth of its hits are not listed in these tables; further: on the % scale 0 is the no-effect control and ±100 the full control effect; luciferase read-out
RE007 growth inh – less growth of the S. pombe RE007 Vpr strain; S. pombe RE007 Vpr strain, BacTiter-Glo ATP luminescence, 24 h; control for the full effect not named in the record; Potency, µM (top dose mostly 92.2 µM), for the others: top-dose activity change, negative = less growth; 360,000 tested, 0.21% active; AID 651644; active = well fitted falling curve with a large enough effect; inconclusive = small, poorly fitted or top-dose-only effect; inactive = no such curve, though single readings can be large or run the other way;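 further: on the % scale 0 is the no-effect control and ±100 the full control effect; nearly all actives have a fitted effect of over 50% in size; the assay follows cell death caused by Vpr and the record does not say whether a fall means rescue or toxicity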
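Fission yeast RE007 carrying one integrated HIV-1 vpr copy, seeded at OD 0.01 in PMG+AL medium with 23 nL pinned compound. Grown 24 h at 30 degrees; viability read by BacTiter-Glo luminescence after 5 min.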
Cruzain inh Det – inhibitors of Trypanosoma cruzi cruzain with detergent. P25779. purified cruzain, Z-FR-AMC fluorescence, 0.01% Triton. Potency, µM, without a hit: max response, negative = inhibition, usual class: inhibitors. 200,000 tested, 0.43% active. AID 1478;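 further: plate controls were neutral wells for no effect and buffer without enzyme for full effect; nearly all actives have a fitted effect of over 40% in size; top concentration of the series not given in the record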
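Cysteine protease activity tested under reducing, mildly acidic conditions (100 mM sodium acetate pH 5.5, 5 mM DTT) plus 0.01% Triton X-100. Cruzain 1.5 nM; substrate Z-FR-AMC 2 uM; 15 min compound preincubation at room temperature.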
LASV entry inh – inhibitors of Lassa virus binding or cell entry; Lassa virus pseudotype entry inhibition, cell reporter; control for the full effect not named in the record; Potency, µM (series often up to 37.9 µM), for inactives: at the top dose activity change, negative = inhibition, hits mostly inhibitors; 300,000 tested, 1.2% active; active means well fitted inhibition curve with a large enough effect; inconclusive means small, poorly fitted or top-dose-only effect, or effect the other way; inactive means flat fitted curve, though single readings scatter; tested in HEK293 cells; further: on the % scale 0 is the no-effect control and ±100 the full control effect; nearly all actives have a fitted effect of over 50% in size; luciferase read-out
Numbers without * were called inactive; ? = inconclusive; · = no result given; & = joins results of further samples; [ ] = another dose, or the depositor's remark. Unless noted, the call rests on the fitted dose curve; in most records, active means well fitted curve in the direction sought with a large enough effect; inconclusive means small, poorly fitted or top-dose-only effect, or another doubt; inactive means no such curve, though single readings can be large; an effect the other way counts as inactive or inconclusive. Potency means the concentration at half of the fitted maximal effect.

SMILES	2A StopGo	NS1 function inh	SARS PLP yeast	Cruzain noTriton	MARV entry inh	RE007 growth inh	Cruzain inh Det	LASV entry inh
CCC(C(=O)NCc1ccccc1OC)n1nc(C)n2c(cc3occc32)c1=O (stereo unspecified)	-1.4%&-1.5%	3.4%	-0.3%	-0.1%&0.1%	12.3%[46.1 µM]	-4.5%	-2.4%&3.0%	0.5%[46.1 µM]
O=C(O)CCC(=O)Nc1ccc(-c2nnc(-c3ccco3)o2)cc1	-10.4%	-5.8%	-0.8%	-10.5%	·	2.6%	-13.9%	·
Cc1cc(NC(=O)C2CC(=O)N(c3cccc(C)c3C)C2)no1 (stereo unspecified)	0.0%	3.0%	-1.4%	·	?	-13.2%	·	6.6%[46.1 µM]
CCN1CCN(C(c2cccs2)C(C)NC(=O)c2cccc(OC)c2)CC1 (stereo unspecified)	-22.3%	6.2%	-9.2%	·	·	-2.2%	·	·
CSc1ccc(/C=C/C(=O)N2CCN(c3ccccn3)CC2)cc1	4.1%	-2.8%	-0.9%	·	·	-12.4%	·	·
CCCCNC(=O)CS(=O)Cc1nc(-c2ccc(C)cc2)oc1C (stereo unspecified)	-0.2%	?	8.0%	-6.4%	·	23.5%	-1.7%	·
CCC(C(=O)NC1CCCCC1)N(Cc1cccs1)C(=O)c1snc(C(N)=O)c1N (stereo unspecified)	-6.0%	·	-1.1%	·	?	-15.6%	·	-20.6%
COC(=O)c1[nH]c2cccc(OC)c2c1NC(=O)CN1CCC(C(N)=O)(N2CCCCC2)CC1	-15.3%	1.3%	8.4%	-1.6%	4.4%	0.3%	-1.9%	14.0%
C#CCOCCOCCOCCNc1nc(N2CCN(C(=O)[C@H](C(C)C)n3cc(CCO)nn3)CC2)nc(N2CCN(C(=O)[C@H]([C@@H](C)CC)n3cc(CCCCN)nn3)CC2)n1	0.0%	7.1%	-14.9%	?	9.7%	-1.8%	-4.9%	-3.9%
COc1ccc(CN2CCC(n3nccc3NC(=O)C3CC3)CC2)c(OC)c1OC	-5.2%	-2.8%	1.9%	·	·	0.5%	·	·
Cc1[nH]n2c(=O)cc(-c3ccc([N+](=O)[O-])cc3)nc2c1-c1ccccc1	-27.5%	·	·	·	?	-1.5%	·	?
CCCCC1(C(=O)OC)NC(c2ccc(O)cc2)C2C(=O)N(c3ccccc3)C(=O)C21 (stereo unspecified)	-8.3%	9.3%	-0.6%	·	13.3%	-25.7%	·	11.1%
O=C(N/N=C/c1ccc(-c2ccccc2[N+](=O)[O-])o1)c1cccnc1	-10.3%	-15.2%	-13.5%	-1.7%	12.2%	-4.6%	-3.8%	7.3%
O=S(=O)(c1ccc2ccccc2c1)N1CCN(C(=S)Nc2ccccc2F)CC1	-16.0%	7.6%	0.4%	·	·	1.2%	·	·
CCOCCCNC(=O)C(NC(=O)CNC(C)=O)c1ccc(C)cc1 (stereo unspecified)	11.1%	3.0%	1.8%	-3.5%	13.1%	-8.4%	1.1%	?
COc1ccccc1/C=C/C=N/NC(=O)CCC1C(=O)NN=C1C (stereo unspecified)	-23.1%	5.1%	17.9%	0.9%	9.1%	-13.9%	-9.5%	5.6%
Cc1cc(=O)c(C(=O)O)nn1-c1cccc(C(F)(F)F)c1	-9.9%	11.3%	0.9%	·	0.8%	-10.9%	·	3.0%
CC(C)[C@H](NS(=O)(=O)c1ccc2c(c1)OCCO2)C(=O)OCC(=O)Nc1cccc(Cl)c1Cl	-20.2%	-0.7%	-12.5%	1.1%	1.5%	15.5%	-8.4%	5.6%
O=C(C1=C(O)C(=O)N(Cc2ccco2)C1c1ccccc1F)c1cccs1 (stereo unspecified)	122.1%[activator]	2.7%	-1.0%	·	·	4.5%	·	·
O=C(CSc1n[nH]c(-c2ccccc2)n1)N1CCCCC1	69.4%[activator]	·	·	-7.7%	·	·	2.8%	0.9%[46.1 µM]
CSc1ccccc1N=CC1=C(O)CC(C)(C)CC1=O	·	1.8%	?	-9.7%	7.6%	?	-6.9%	-5.9%
COc1cccc(NC(=O)NC2CCN(Cc3nnnn3Cc3ccc(F)cc3)CC2)c1	-6.2%	-30.4%	-1.1%	-3.1%	1.7%	0.4%	1.4%	-1.0%
CC(=O)N1CCN(c2ccc([N+](=O)[O-])c(NCc3cccnc3)c2)CC1	0.8%	·	-1.2%	·	-23.4%	1.5%	·	-2.8%
CCCC(NC(=O)c1ccco1)c1nc2ccccc2[nH]1 (stereo unspecified)	-11.5%	?	-7.5%	-10.1%	4.6%	-7.1%	-4.0%	-3.8%
O=C1CCC(NC(=O)c2ccccc2)C(=O)N1 (stereo unspecified)	15.7%	10.9%	1.8%	·	8.0%[46.1 µM]	10.9%	·	?
OCCN(CCO)CC(O)CN(c1ccccc1)c1ccccc1 (stereo unspecified)	-1.7%	6.0%	-0.2%	·	27.3%	-12.3%	·	?
COC(=O)c1nnn(-c2nonc2N)c1CSc1ccccn1	-21.1%	5.1%	1.0%	-0.8%	-10.6%	-6.2%	3.7%	11.6%
CC(=O)N1CCCc2ccc(NS(=O)(=O)c3ccccc3)cc21	-11.7%	·	-1.7%	·	5.3%[46.1 µM]	-1.9%	·	-14.6%
O=C(Nc1ccccc1)Nc1ccc(Oc2ncnc3cc(Cl)ccc23)nc1	-9.2%	0.6%	1.0%	·	5.8%[46.1 µM]	0.5%	·	0.0%[46.1 µM]
O=C(c1ccccc1)C1CCN(CC(=O)N2CCN(c3ccccc3)CC2)CC1	4.1%	-1.8%	0.4%	·	·	2.5%	·	·
Nc1nc(Sc2ccc([N+](=O)[O-])c3nonc23)c2[nH]cnc2n1	?	?	·	-18.1%	?	-17.9%	-8.8%	?
O=C(c1coc2ccccc2c1=O)N1CCN(c2cccc(C(F)(F)F)c2)CC1	·	-39.7%	-1.0%	10.8%	26.6%	9.2%	-5.3%	-1.9%
CCc1ccc(NC(=O)CCc2c(C)nn(-c3ccc(N4CCOCC4)nn3)c2C)cc1	29.2%	-10.2%	-16.6%	·	·	-7.2%	·	·
CCN(Cc1ccncc1)C(=O)c1cc(COc2c(F)cccc2F)on1	-19.0%	-11.6%	-0.4%	·	·	-11.8%	·	·
CCOC(=O)CNC(=S)N(Cc1ccccc1)Cc1cccnc1	-2.8%	·	-12.2%	·	-13.3%[46.1 µM]	5.9%	·	-27.5%
CCCN(CCC)S(=O)(=O)c1ccc(C(=O)NNC(=O)c2cc(OC)c(OC)c(OC)c2)cc1	-12.7%	-3.7%	0.8%	·	?	-17.2%	·	-11.3%[46.1 µM]
Cc1ccc(NC(=O)c2sc(N)nc2C)cc1	67.5%[activator]	-5.6%	-0.1%	·	·	3.9%	·	·
COc1ccc(NC(=O)CSc2nnc(N)n2CC(=O)Nc2ccc(OC)cc2)cc1	-4.1%	·	2.8%	·	-7.9%[46.1 µM]	-12.9%	·	·
Nc1cc(C(=O)OCC(=O)NNC(=O)c2ccccc2F)ccc1Cl	-4.2%	·	-0.6%	·	-4.3%	5.9%	·	-6.1%
Cc1ccc(NC(=O)c2cc(C)n(-c3ccccc3)c2C)cc1	?	8.5%	-63.3%	2.8%	2.24µM*	22.6%	-7.4%	2.82µM*
O=C(NCc1cccc(Br)c1)c1cnn(-c2ccc(F)cc2)c1-n1cccc1	-17.6%	·	·	-1.1%	·	·	-8.7%	-2.8%[46.1 µM]
CNC(=S)N/N=C(\C)c1cccc(C(F)(F)F)c1	14.3%	-21.9%	4.8%	·	·	-3.6%	·	·
COc1ccc(NC(=O)c2ccccc2[N+](=O)[O-])cc1	49.9%[activator]	6.6%	-0.8%	-5.6%	6.2%	2.7%	0.1%	12.5%
C=C(C)COc1ccc(-c2[nH]ncc2-c2ccccc2OC)c(O)c1	-29.6%	-112.5%	-19.6%	-6.4%	7.94µM*	-21.1%	-9.5%	?
C=C(C)CSc1nc2ccccc2c(=O)n1-c1c(C)n(C)n(-c2ccccc2)c1=O	-12.4%	·	1.7%	·	-6.0%	14.7%	·	?
CCc1nnc(NC(=O)CN2CCN(c3cccc(OC)c3)CC2)s1	-23.1%	3.5%	-7.5%	-1.6%	14.0%	-9.0%	-0.1%	-2.2%
NC(=O)c1ccc(C(F)(F)F)n(Cc2ccccc2Cl)c1=O	1.0%	5.3%	-2.6%	-2.4%	-7.6%	-13.4%	-10.0%	-8.9%
Cc1cc(OCC(=O)Nc2ccccn2)c2c(C)c(C)c(=O)oc2c1	18.8%	-9.6%	3.9%	·	·	-1.3%	·	·
CCn1c(=O)c(C(=O)NNC(=O)c2ccc(Cl)cc2Cl)c(O)c2ccccc21	-2.3%	-20.2%	-25.0%	·	?	-10.0%	·	4.0%[46.1 µM]
COc1ccc(NC(=O)CSc2ccc3ccccc3c2)cc1S(=O)(=O)N1CCCCC1	?	?	6.5%	-25.2%	?	-11.3%	-5.2%	?
Cn1ccnc1SCC(=O)c1ccc([N+](=O)[O-])cc1	11.4%	4.1%	-0.3%	·	?	-23.8%	·	0.9%
CC(C)c1ccc(-c2csc3nc[nH]c(=O)c23)cc1	-4.0%	-30.6%	-2.4%	·	·	2.0%	·	·
O=C(Cc1cccs1)N(CC1CCCO1)C1(C(=O)NC2CCCC2)CCCCC1 (stereo unspecified)	1.5%	·	-1.5%	·	?	-12.3%	·	0.7%
Cc1cc(N(C)/N=C/c2ccccc2O)nc(-c2ccccc2O)n1	-0.5%	·	-1.2%	·	25.2%[46.1 µM]	14.8%	·	-23.1%[46.1 µM]
CN(C)CCOCCOc1ccc(Cl)cc1C(C)(C)C	-5.7%	-3.1%	-1.5%	·	?	-11.1%	·	?
Cc1cc(C(F)F)n2nc(C(=O)O)nc2n1	14.1%	4.9%	6.8%	4.4%	-5.2%[46.1 µM]	0.4%	-4.4%	0.4%
COc1ccccc1C(=O)Nc1ccc2c(c1)CCCN2C(=O)c1ccccc1	-8.3%	3.7%	-70.8%	·	?	?	·	?
CCn1nc(C)cc1C(=O)Sc1cccc(Br)c1	?	-31.3%	0.0%	·	8.3%[46.1 µM]	-8.4%	·	-26.0%
NS(=O)(=O)c1ccc(CCNC(=O)C2(S(=O)(=O)c3ccc(Cl)cc3)CC2)cc1	-13.6%	0.6%	1.2%	·	?	?	·	12.5%[46.1 µM]
